Biofilm kill mix: mixtures killing C. albicans biofilm; C. albicans biofilm persisters + clotrimazole, fluorescence viability; primary screen in compound mixtures of four per well; inhibition, % at 7.6 µM; hit rate 0.02% among 120,000; AID 1242;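 active means inhibition above 30.3% in the primary screen of four-compound pools, then above 30% when the compound was retested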;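 further: compounds exposed to preformed 24 h biofilms for 48 h; the number belongs to the whole pool; some results filed as inactive read as strong as hits; inactives centre near 12; 0% = biofilm with clotrimazole alone and 100% = kill control; retested singly at about 60 µM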
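Test system: C. albicans CAF4-2 wild-type biofilms; buffer or medium: RPMI/MOPS medium, pH 7.0; schedule: 24 h biofilm formation, then 48 h compound exposure, 37 °C; detection: Alamar Blue fluorescence; measure: percent inhibition of biofilm viability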
Active calls of the source: *. These rows are one share of the data; rates above refer to the full screens.

Compound	Biofilm kill mix
Cc1ccc(C)c(CSc2nc3ccncc3n2CC(=O)Nc2ccc(C)c(C)c2)c1	12
CC(/C=N/N1CCN(c2ccccn2)CC1)=C\c1ccccc1	19
COCc1ccc(CN2CCc3c([nH]c4ccccc34)C2C(C)(C)C)o1 (configuration not stated)	15
O=c1[nH]c(CSc2ncnc3sccc23)nc2cc(C(F)(F)F)ccc12	-10
O=C(CSCc1ccccc1F)NCc1ccccc1	14
CCN(CC)C(=O)c1sc2nc(Cc3ccccc3)[nH]c(=O)c2c1C	-2
Cn1c(C(=O)NCCc2ccccc2)cc(=O)n(C)c1=O	7
CCOP(=O)(OCC)C(Nc1ccccc1)c1ccccc1C(F)(F)F (configuration not stated)	3
COCCNC(=O)C1CCCN(S(=O)(=O)c2c(C)noc2/C=C/c2cccs2)C1 (configuration not stated)	17
O=C(Cc1ccc(S(=O)(=O)N2CCCCC2)s1)Nc1ccc(F)c(F)c1	7
O=C(N/N=C/c1ccc([N+](=O)[O-])cc1)c1ccc(COc2ccccc2-c2ccccc2)cc1	12
CC1CCC(NC(=O)CN2C(=O)COc3ccc(S(=O)(=O)N4CCCC4)cc32)CC1 (configuration not stated)	14
O=c1c2c3c(sc2n2c(=S)[nH]nc2n1-c1ccccc1)CCC3	18
O=C1NC[C@@H](Cc2cccc3ccccc23)N(CCc2cc(C(F)(F)F)cc(C(F)(F)F)c2)C1=O	15
COc1ccc(Nc2nc(NN)nc(C)c2[N+](=O)[O-])cc1	16
COc1ccc(OC)c(Nc2ncnc3sc(-c4ccccc4)cc23)c1	21
COc1cccc(/C=N/NC(=O)c2cnccn2)c1OC	22
COc1ccc(NC(=O)CCSc2ccc(C)cc2)cc1S(=O)(=O)Nc1ccccc1Cl	20
O=C(O)c1ccccc1-c1ccccc1C(=O)Nc1cccc(O)c1	16
Cc1nn(C)c(Cl)c1S(=O)(=O)N1CCC(CO)(CCc2ccccc2)CC1	5
COC(=O)CSc1cc([N+](=O)[O-])cc2c1c(C1OCCO1)nn2-c1ccccc1	9
N#Cc1ccc(OCC(=O)N/N=C/C2CC=CCC2)cc1 (configuration not stated)	-3
Cc1ccc(C(=O)N[C@H](C(=O)OCC(=O)c2ccc[nH]2)C(C)C)cc1	7
COc1ccccc1Nc1nc(NCC2CCCO2)c2ccccc2n1 (configuration not stated)	13
Cc1ccc(S(=O)(=O)N2CCCCC2)cc1NC(=O)Cn1ccc(C(F)(F)F)n1	11
CC(=O)c1ccc(OCC(O)CNCc2ccc3c(c2)OCO3)cc1 (configuration not stated)	26
Cc1ncoc1C(=O)N1CCCC(C(=O)c2ccc(-c3ccccc3)cc2)C1 (configuration not stated)	18
COC(=O)c1ccc(COc2ccccc2/C=N/Nc2cccc(C(=O)O)c2)cc1	18
Cc1ccc(CN2CCN(CCCc3ccccc3)CC2CCO)cc1 (configuration not stated)	8
COc1ccc(Cc2noc(CN3CCN(C4CCc5ccccc5C4)CC3)n2)cc1OC (configuration not stated)	1
COc1ccc(N=C2NC(=O)/C(=C\c3ccco3)S2)cc1	20
CSC1=C(C#N)C(c2ccc(Cl)cc2)C2=C(CC(C)(C)CC2=O)N1 (configuration not stated)	10
NS(=O)(=O)c1ccc(O)c(NC(=O)c2ccc([N+](=O)[O-])cc2)c1	18
Cc1ccc(SCc2c(C(=O)N/N=C/c3ccccc3)nnn2-c2nonc2N)cc1	24
O=C(/C=C/c1c(F)cccc1Cl)Nc1nc2ccccc2[nH]1	6
COc1ccc(O)c(/C=N/N2CCOCC2)c1	29
CSc1ccccc1C(=O)Nc1cc([N+](=O)[O-])ccc1C	13
C=CCn1c(=NC(=O)c2cc(-c3cccs3)nc3ccccc23)sc2cc(S(N)(=O)=O)ccc21	6
Cc1cc(=O)[nH]c2c1c(C)nn2-c1ccccc1	20
COCCNc1nc2nonc2nc1N(C)Cc1cccc2cnccc12	9
CC(C)N1C(=O)CCN(C=O)c2ccccc21	20
Cc1cc(C)c2c(N)c(C(=O)c3ccccc3Cl)sc2n1	18
CN1CCN(C(=S)C(=O)Nc2ccccc2)CC1	7
COC(=O)[C@@H]1C[C@H]2CC[C@H](O)C[C@H]2N1Cc1ccc(-c2ccccc2)cc1	16
Cc1ccc(C(C(=O)NC2CCCC2)N(Cc2ccc3c(c2)OCO3)C(=O)Cc2cccs2)cc1 (configuration not stated)	15
O=C(/C=C/c1ccccc1F)c1cccc([N+](=O)[O-])c1	9
Cc1nn(C)c(C)c1Nc1ccc(N2C(=O)C3CC=CCC3C2=O)cc1[N+](=O)[O-] (configuration not stated)	10
Cc1ccc2cc(CN(CC3CCCO3)S(=O)(=O)c3ccccc3)c3nnnn3c2c1 (configuration not stated)	8
Cc1cc(C)nc(NS(=O)(=O)c2ccc(N3Cc4ccccc4C3=O)cc2)n1	6
CS(=O)(=O)N1CCC(C(=O)N2CCN(c3ccccc3)CC2)CC1	14
O=C(CC1SC(=Nc2ccc(OC(F)F)cc2)N(CCN2CCOCC2)C1=O)Nc1ccc(F)cc1F (configuration not stated)	14
O=C(Nc1nc(-c2ccccc2)nc2ccccc12)c1ccc(F)cc1	-7
C[C@@H]1CC=C[C@H]2[C@H]1C(=O)N(Cc1ccccc1)[C@H]2c1ccc(F)c(/C=C/c2ccccc2)c1	13
CCOC(=O)c1c(NC(=O)C(=O)N/N=C/c2ccccc2O)sc2c1CCCCC2	10
Cc1noc(NS(=O)(=O)c2ccc(N/C=C\C(=O)c3ccc(F)cc3)cc2)c1C	12
O=C(N/N=C/c1cccc(F)c1)NC1CCCCC1	12

Remaining list, next part:
Compound	Biofilm kill mix
OCCN1CCN(CC(O)C(F)(F)F)CC1 (configuration not stated)	5
O=C(NC1CCCCC1)c1sc(N2CCOCC2)nc1-c1ccccc1	7
COc1ccc(S(=O)(=O)Nc2cccc(N(C)S(C)(=O)=O)c2)cc1C	25
O=C(COc1ccc(S(=O)(=O)N2CCCC2)cc1)Nc1ccc2c(c1)OCCO2	21
Oc1ccc(NC(=S)N=Nc2c(O)[nH]c3ccc(Br)cc23)cc1	7
COc1cc(O)c(C(CCN2CCOCC2)c2cc(OC)c(OC)c(OC)c2)c(OC)c1 (configuration not stated)	24
CN(C)S(=O)(=O)c1ccc(N)c([N+](=O)[O-])c1	24
C/C=C/C(=O)OCC(=O)Nc1cc(OC)c([N+](=O)[O-])cc1C	18
N/C(=N\S(=O)(=O)c1cc(C(F)(F)F)cc(C(F)(F)F)c1)c1ccc(Cl)cc1	6
CC1=CC(=O)C=C(C)C1=NOc1ccccc1[N+](=O)[O-]	2
COc1ccc(-c2nnc(SCC(=O)Nc3cc(C)on3)o2)cc1	14
O=C(NC(CSSCC(NC(=O)c1ccccc1)C(=O)O)C(=O)O)c1ccccc1 (configuration not stated)	16
COc1ccccc1OCC(=O)NNC(=O)Nc1ccc(Cl)cc1	9
N=C(N)SCC1=CCS(=O)(=O)C1	30
O=C(COC(=O)c1ccc(Cl)c(S(=O)(=O)N2CCCCC2)c1)NCC1CCCO1 (configuration not stated)	13
Cc1c(Cc2ccccc2)c(=O)oc2cc(OCC(=O)c3ccccc3)ccc12	4
C/C(=N\NC(=O)c1ccc(Cn2cc([N+](=O)[O-])cn2)o1)c1cccc(NC(=O)C(C)C)c1	11
COc1cc2c(cc1NC(=O)/C=C/c1cc(OC)c(OC)c(OC)c1)oc1ccccc12	15
COc1ccc(C2/C=C\CN(C(=O)C3CC3)CC(=O)N2Cc2ccc(F)cc2)cc1 (configuration not stated)	11
CC(=O)Nc1ccc(S(=O)(=O)Oc2ccc3c(c2)C(C)=CC(C)(C)N3)cc1	16
CC(=O)Nc1ccc(NC(=O)C2CCCN2S(=O)(=O)c2cccc3nsnc23)cc1 (configuration not stated)	1
O=C1CCNc2c(Cl)cccc21	13
O=C(O)CCCn1cc(NC(=O)COc2ccc([N+](=O)[O-])cc2)cn1	21
COc1ccc(/C=C/C(=O)OCC(=O)NCCC2=CCCCC2)cc1	-7
O=C1NC[C@@H](Cc2ccc(O)cc2)N(CCc2cccc3ccccc23)C1=O	-1
CCOC(=O)c1cc2c(=O)[nH]ccc2nc1C(F)(F)F	21
CCC(C)NC(=S)Nc1ccc2nc(N3CCN(CC)CC3)cc(C)c2c1 (configuration not stated)	2
CCOC(=O)c1c(NC(=O)CCC(=O)O)sc2c1CC(C)(C)OC2	9
O=C(/C=C/c1cccs1)c1ccc(N2CCOCC2)cc1	4
O=C(CN1CCC(C(=O)c2cccc(F)c2)CC1)NCc1cccs1	22
COc1cc(OC)cc(C(=O)NCCOC23CC4CC(CC(C4)C2)C3)c1	21
O=C(c1cccnc1)N1CCN(c2ccc(Cl)cc2)CC1	-3
CC(C)NS(=O)(=O)c1ccc(NC(=O)NC2CCCCC2)cc1	9
O=C(NC1CCCCC1)c1cc2ccccc2cc1O	9
Cc1ccc(S(=O)(=O)/N=C(/Nc2ccc3[nH]c(=O)[nH]c3c2)c2ccccc2)cc1	25
O=C(CSCc1ccccc1)NCCCN1CCOCC1	12
CCn1c(SCC(=O)N2CCOCC2)nc2ccccc21	23
CCCCN1C(N)=NC[C@@H]1Cc1ccc(O)cc1	16
O=C(Nc1ccc2c(c1)C(=O)NC2=O)c1ccc(Cl)s1	14
COc1ccccc1CC(=O)Nc1ccc(F)cc1F	18
COc1ccc(-c2cc(C(=O)O)no2)cc1	19
CCOC(=O)Cn1c(=NC(=O)C2CC2)sc2c(C)cc(C)cc21	25
CN(C)c1ccc(C(CNS(=O)(=O)c2ccc(F)cc2)c2c[nH]c3ccccc23)cc1 (configuration not stated)	15
Cn1nc(C(F)(F)F)c(-c2ccc(F)cc2)c1NC(=O)c1ccco1	11
[O-][n+]1onc2c1CCc1[nH]c(-c3ccccc3)nc1-2	-1
O=C(CCc1ccccc1)N1CCN(c2ccc([N+](=O)[O-])cc2)CC1	2
O=C(NCc1nnc(SCC(=O)N2CCCc3ccccc32)o1)c1ccccc1F	19
COc1ccccc1NS(=O)(=O)c1cccc(-n2c(O)c(C=Nc3ccccc3C(=O)O)c3ccccc3c2=O)c1	3
Cc1ccc(NC(=O)CN2CCN(c3ccccn3)CC2)cc1S(=O)(=O)N(C)C	-7
CN1CCc2c(OCC(=O)N3CCCc4ccccc43)cccc2C1=O	16
CCOc1cc(N2CCOCC2)c(OCC)cc1NC(=O)COc1ccccc1[N+](=O)[O-]	21
Cc1cc2n(n1)SC(Nc1ccc(F)c(Cl)c1)N2 (configuration not stated)	10
CC(C)N(C(=O)CSc1nnc(Cc2ccc3c(c2)OCO3)n1C)C(C)C	15
c1ccc(-c2cc(N3CCCCC3)nc(-c3ccccc3)n2)cc1	16
Cc1ccc(C(=O)Oc2ccc([N+](=O)[O-])cc2)cc1S(=O)(=O)N1CCCCCC1	17
CCCCOc1ccc(C(=O)N/C(=C/C=C/c2ccccc2)C(=O)NCCO)cc1	16

Continued.
Compound	Biofilm kill mix
O=C(c1cc2nc(-c3ccc(F)cc3)cc(C(F)(F)F)n2n1)N1CCCCC1c1cccnc1 (configuration not stated)	4
COc1cc(/C=N/NC(=O)Cc2c[nH]c3ccccc23)cc(OC)c1OC	10
O=S(=O)(c1ccc(F)cc1)N1CCN(c2ncccn2)CC1	27
CC(C)c1nc2sc3c(=O)n(N)cnc3c2c2c1COC(C)(C)C2	9
Cc1nc(SCC(=O)NC(=O)NCc2ccco2)nc(C)c1C	3
Cc1c(C(c2ccc(O)cc2)c2c(C)n(C)n(-c3ccccc3)c2=O)c(=O)n(-c2ccccc2)n1C	11
CC(C)COP(=O)(c1ccc(N(C)C)cc1)C(Nc1ccccc1)c1ccccc1 (configuration not stated)	15
O=C(C1=C[C@H](c2coc3ccccc3c2=O)C[C@H](OCc2ccc(CO)cc2)O1)N1CCN(Cc2ccccc2)CC1	14
Cc1ccccc1NC(=O)Cn1cnc2c(oc3nc4c(cc32)COC(C)(C)C4)c1=O	3
O=C(COc1ccc(Cl)cc1)NNC(=O)c1cccnc1	17
CCN(CC)S(=O)(=O)c1ccc(C(=O)NNC(=O)c2cccs2)cc1	15
COC(=O)CSc1nnc(CNC(=O)c2ccccc2F)n1-c1ccccc1	11
Oc1cc(O)c2c(c1)O[C@H](c1ccc(O)c(O)c1)[C@@H](O)C2	15
O=C(CCSCc1cccc(Cl)c1)NC1CCCC1	19
O=C(CCc1nc2ccccc2s1)c1ccccc1	12
